NOMO-1 viab: STK33 inhibitor candidate reducing NOMO-1 cell viability; NOMO-1 AML viability, CellTiter-Glo luminescence, 72 h; inhibition, % (test concentration not listed); 37,000 tested, 7.5% active;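 active means most replicates above 80%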;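 further: wells of about 30 µL received 25 nL stock; 0% = median of vehicle wells and 100% = reference inhibitor level; the first replicate is given; inactives centre near 10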
The depositor's hits bear a star. An excerpt (hit frequency here may not be typical).

SMILES | NOMO-1 viab
C[C@@H]1CN([C@@H](C)CO)C(=O)c2cc(NS(C)(=O)=O)ccc2O[C@H]1CN(C)C(=O)Nc1ccc(F)cc1 | 38
C[C@@H]1CN([C@@H](C)CO)C(=O)Cc2cc(NC(=O)NC3CCCCC3)ccc2O[C@@H]1CN(C)C(=O)Nc1ccc2c(c1)OCO2 | -7
O=C(Cn1ccc([N+](=O)[O-])n1)NCc1ccccc1 | -10
Cc1ccc(NC(=O)Cn2cncc2-c2ccc([N+](=O)[O-])cc2)cc1C | 43
COc1ccc(NC(=O)Nc2ccc3c(c2)CC(=O)N([C@@H](C)CO)C[C@H](C)[C@@H](CN(C)S(=O)(=O)c2ccccc2)O3)cc1 | -10
Cn1c(SCC(=O)Nc2ccc3c(c2)oc2ccccc23)nnc1-c1ccccc1 | 9
C[C@H]1CN([C@@H](C)CO)C(=O)c2cccc(NC(=O)c3ccc(-c4nccs4)cc3)c2O[C@H]1CN(C)S(=O)(=O)c1ccc(F)cc1 | 16
COc1cc(C)c(Br)cc1S(=O)(=O)NCCCN1CCOCC1 | -6
Cc1cc(Br)cnc1N=CNO | -6
Cc1noc(C)c1NC(=O)Nc1ccc2c(c1)C(=O)N([C@@H](C)CO)C[C@@H](C)[C@H](CN(C)C)O2 | 19
Cc1sc(NC(=O)COc2ccc(-c3ccccc3)cc2)c(C(N)=O)c1C | -3
Cc1ccc(S(=O)(=O)Nc2ccc3c(c2)CC(=O)N([C@H](C)CO)C[C@@H](C)[C@@H](CN(C)C(=O)Nc2c(C)noc2C)O3)cc1 | 0
O=C(NCc1ccco1)C1CCCN(S(=O)(=O)c2ccc(Cl)cc2)C1 (stereo unspecified) | 36
O=C(CSc1nnc(-c2cccs2)n1-c1ccc(F)cc1)Nc1ccc(Cl)c(Cl)c1 | 24
O=C(CSc1nnc(-c2cnccn2)n1-c1ccccc1)Nc1cc(C(F)(F)F)ccc1Cl | 29
O=C(/C=C/c1ccccc1)O[C@@H]1C[C@@](O)(C(=O)O)C[C@@H](O)[C@@H]1O | 16
Cc1cccc(NC(=O)CSc2nnc(-c3cccs3)n2-c2ccccc2)c1C | 9
C[C@@H]1CN([C@@H](C)CO)C(=O)c2cc(NS(=O)(=O)c3cn(C)cn3)ccc2O[C@@H]1CN(C)C | -11
CCN(CC)CCSc1nnc2c3ccccc3n(CC(N)=O)c2n1 | 33
O=C(Nc1cccnc1)C1CC(c2ccc(Cl)c(Cl)c2)=NO1 (stereo unspecified) | 33
COc1cccc(C(=O)OCc2nc3ccccc3s2)c1 | -6
C[C@@H]1CN([C@@H](C)CO)C(=O)Cc2cc(NC(=O)CCC(F)(F)F)ccc2O[C@@H]1CN(C)C | 22
C[C@H]1CN([C@@H](C)CO)C(=O)Cc2cc(NS(=O)(=O)c3cn(C)cn3)ccc2O[C@H]1CN(C)C(=O)Nc1ccc(C(F)(F)F)cc1 | -8
COC(=O)c1cc2cc(O)c(-c3c(O)cc4cc(C(=O)OC)oc(=O)c4c3O)c(O)c2c(=O)o1 | 39
Cc1ccc(C(=O)CSc2nnc(-c3ccco3)o2)o1 | 22
OC(Cn1nnc2ccccc21)Cn1c2ccc(Cl)cc2c2cc(Cl)ccc21 (stereo unspecified) | 43
Cc1cc(C(=O)Nc2cccc3c2O[C@H](CN(C)S(=O)(=O)c2cccs2)[C@@H](C)CN([C@H](C)CO)C3=O)n(C)n1 | 5
COc1ccc(-c2cc(C)nc(SCc3cccc(C(=O)O)c3)n2)cc1 | -2
COc1ccc(C2CC(=O)Oc3cc(O)cc(O)c32)cc1 (stereo unspecified) | 6
Cc1cc(=O)n2c3ccccc3n(CC(O)CNc3ccccc3)c2c1C#N (stereo unspecified) | 3
COc1cc(OC)cc(-c2nnc(SCC(=O)NC3CC4CCC3C4)o2)c1 (stereo unspecified) | 27
COc1ccc(NC(=O)N(C)C[C@@H]2Oc3ccc(NC(=O)CCCN(C)C)cc3C(=O)N([C@H](C)CO)C[C@H]2C)cc1 | 21
C[C@@H]1CN([C@H](C)CO)C(=O)c2cc(NC(=O)Cc3cn(C)c4ccccc34)ccc2O[C@H]1CN(C)Cc1ccccc1 | 53
Cc1noc(C)c1S(=O)(=O)Nc1ccc2c(c1)C(=O)N([C@@H](C)CO)C[C@H](C)[C@H](CN(C)S(=O)(=O)c1ccccc1)O2 | -11
C[C@@H]1CN([C@@H](C)CO)C(=O)c2cc(NS(=O)(=O)c3ccccc3)ccc2O[C@@H]1CN(C)S(=O)(=O)c1cn(C)cn1 | 8
CC1=C(C(=O)Nc2ccccc2C)C(c2cccc([N+](=O)[O-])c2)n2ncnc2N1 (stereo unspecified) | 13
CNC[C@@H]1Oc2c(NC(=O)Nc3c(C)noc3C)cccc2C(=O)N([C@@H](C)CO)C[C@H]1C | 5
CSc1nc2cc(C)nn2c(-c2ccco2)c1C#N | 19
C[C@H]1CN([C@@H](C)CO)C(=O)Cc2cc(NC(=O)CCC(F)(F)F)ccc2O[C@@H]1CN(C)C(=O)Nc1ccc(C(F)(F)F)cc1 | 6
C[C@H](CO)N1C[C@H](C)[C@H](CN(C)C(=O)Nc2ccccc2)Oc2ccc(NC(=O)NC3CCCCC3)cc2C1=O | -3
COc1ccc(-c2ccc(N)[n+](CCCC(=O)O)n2)cc1 | 3
C[C@H](CO)N1C[C@H](C)[C@H](CN(C)CC2CC2)Oc2c(NC(=O)CCCCCC(=O)Nc3ccccc3N)cccc2C1=O | 22
C[C@@H]1CN([C@@H](C)CO)C(=O)c2cccc(NC(=O)CCCCCC(=O)Nc3ccccc3N)c2O[C@@H]1CN(C)S(=O)(=O)c1ccc(Cl)cc1 | 121*
COc1ccc(Cl)cc1N1CCN(CCCNC(=S)Nc2ccc(Cl)cc2C)CC1 | 36
C[C@@H]1CN([C@H](C)CO)C(=O)c2cccc(NC(=O)C3CCOCC3)c2O[C@H]1CN(C)C(=O)Nc1ccc2c(c1)OCO2 | 13

Entries shown so far containing a COOH group (three):
SMILES | NOMO-1 viab
O=C(/C=C/c1ccccc1)O[C@@H]1C[C@@](O)(C(=O)O)C[C@@H](O)[C@@H]1O | 16
COc1ccc(-c2cc(C)nc(SCc3cccc(C(=O)O)c3)n2)cc1 | -2
COc1ccc(-c2ccc(N)[n+](CCCC(=O)O)n2)cc1 | 3

Four records picked at random from those above, as already listed:
SMILES | NOMO-1 viab
C[C@@H]1CN([C@H](C)CO)C(=O)c2cccc(NC(=O)C3CCOCC3)c2O[C@H]1CN(C)C(=O)Nc1ccc2c(c1)OCO2 | 13
COc1ccc(Cl)cc1N1CCN(CCCNC(=S)Nc2ccc(Cl)cc2C)CC1 | 36
CNC[C@@H]1Oc2c(NC(=O)Nc3c(C)noc3C)cccc2C(=O)N([C@@H](C)CO)C[C@H]1C | 5
C[C@@H]1CN([C@@H](C)CO)C(=O)c2cc(NS(=O)(=O)c3ccccc3)ccc2O[C@@H]1CN(C)S(=O)(=O)c1cn(C)cn1 | 8

(cont.)
SMILES | NOMO-1 viab
C[C@@H]1CN([C@H](C)CO)C(=O)c2cc(NS(=O)(=O)c3cccs3)ccc2O[C@H]1CN(C)C(=O)Nc1ccccc1 | 10
O=C(O)C1CCCN1C(=O)OCc1ccccc1 (stereo unspecified) | -4
CCn1c(SCC(=O)Nc2cc(C(F)(F)F)ccc2Cl)nnc1-c1ccccc1F | 20
COc1ccc(S(=O)(=O)Nc2cccc3c2O[C@H](CN(C)Cc2ccc4c(c2)OCO4)[C@H](C)CN([C@H](C)CO)C3=O)cc1 | 29
O=C(Cc1cccs1)N1c2ccccc2Sc2ccccc21 | 56
CS(=O)(=O)N(CC(=O)Nc1ccccc1C(=O)N1CCOCC1)c1cccc(F)c1 | -4
Cc1cccc(OCCCC(=O)Nc2ccc3c(c2)OCCO3)c1C | -16
COc1cc([N+](=O)[O-])ccc1NC(=S)NCCn1cc(Br)cn1 | 7
S=C(CC(=S)N1CCOCC1)N1CCOCC1 | 86*
CC1CC(C)CN(C(=O)C2c3ccccc3Oc3ccccc32)C1 (stereo unspecified) | 66
CC1CN(C)C(c2ccccc2)C(C)C12NC(=O)NC2=O (stereo unspecified) | -11
Cc1cc(C(=O)Nc2cccc3c2O[C@H](CN(C)S(=O)(=O)c2c(C)noc2C)[C@H](C)CN([C@H](C)CO)C3=O)n(C)n1 | -12
C[C@H](CO)N1C[C@H](C)[C@H](CN(C)CC2CC2)Oc2ccc(NC(=O)Cc3ccccc3)cc2CC1=O | 3
C[C@@H]1CN([C@H](C)CO)C(=O)c2cccc(NS(=O)(=O)c3cn(C)cn3)c2O[C@@H]1CN(C)S(=O)(=O)c1ccc(Cl)cc1 | 33
CC(=O)c1ccc(NC(=O)CSc2nc(C)cc(C)c2C#N)cc1 | 24

Overlap with the part before: 3 compounds, followed by the next part.
SMILES | NOMO-1 viab
C[C@H](CO)N1C[C@H](C)[C@H](CN(C)CC2CC2)Oc2ccc(NC(=O)Cc3ccccc3)cc2CC1=O | 3
C[C@@H]1CN([C@H](C)CO)C(=O)c2cccc(NS(=O)(=O)c3cn(C)cn3)c2O[C@@H]1CN(C)S(=O)(=O)c1ccc(Cl)cc1 | 33
CC(=O)c1ccc(NC(=O)CSc2nc(C)cc(C)c2C#N)cc1 | 24
CC(C)NC(=O)Nc1cccc2c1O[C@H](CN(C)Cc1ccc(-c3ccccc3)cc1)[C@H](C)CN([C@@H](C)CO)C2=O | 29
C[C@H]1CN([C@@H](C)CO)C(=O)Cc2cc(NC(=O)Nc3ccc4c(c3)OCO4)ccc2O[C@H]1CN(C)CC1CC1 | 12
Cc1ccc(S(=O)(=O)Nc2cccc3c2O[C@H](CN(C)S(=O)(=O)c2ccc(C)cc2)[C@@H](C)CN([C@@H](C)CO)C3=O)cc1 | 0
COc1cccc(N(CC(=O)Nc2c(C)n(C)n(-c3ccccc3)c2=O)S(C)(=O)=O)c1 | -3
Cc1c(NC(=O)Cn2nc(C(F)(F)F)c3c2CCCC3)c(=O)n(-c2ccccc2)n1C | -20
N#CC1=C(N)Oc2n[nH]c(-c3ccccc3)c2C1c1ccoc1 (stereo unspecified) | 19
Cc1cc(C)nc(SC(C)C(=O)Nc2ccc(Cl)c(Cl)c2)n1 (stereo unspecified) | -10
O=C(Cc1ccc(O)cc1)OC1[C@@H](O)[C@@H](O)C(OC(=O)Cc2ccc(O)cc2)[C@H](O)[C@@H]1O (stereo partly specified) | 30
C[C@@H]1CN([C@H](C)CO)C(=O)c2cccc(NC(=O)c3ccncc3)c2O[C@H]1CN(C)Cc1ccccc1 | 69
C[C@H](CO)N1C[C@H](C)[C@H](CN(C)Cc2ccc(C(=O)Nc3ccccc3N)cc2)Oc2ccc(NS(C)(=O)=O)cc2C1=O | 50
Cc1cc(C)c(NC(=O)CSc2nnc(-c3ccc(F)cc3)n2C)c(C)c1 | 3
C[C@@H]1CN([C@H](C)CO)C(=O)Cc2cc(NC(=O)c3ccncc3)ccc2O[C@H]1CN(C)S(=O)(=O)c1ccccc1 | 11
CNC[C@@H]1Oc2c(NC(=O)C3CCCCC3)cccc2C(=O)N([C@@H](C)CO)C[C@H]1C | 9
CC(C)NC(=O)N(C)C[C@H]1Oc2ccc(N(C)C)cc2C(=O)N([C@@H](C)CO)C[C@H]1C | 0
C[C@H](CO)N1C[C@H](C)[C@@H](CN(C)Cc2ccc(Cl)c(Cl)c2)Oc2ccc(NC(=O)NC3CCCCC3)cc2C1=O | 44
COc1ccc(S(=O)(=O)N(C)C[C@H]2Oc3ccc(N(C)C)cc3C(=O)N([C@@H](C)CO)C[C@H]2C)cc1 | -4
CC(C)NC(=O)N(C)C[C@@H]1Oc2ccc(NS(=O)(=O)c3cccs3)cc2C(=O)N([C@@H](C)CO)C[C@@H]1C | -8
C[C@@H]1CN([C@@H](C)CO)C(=O)c2cc(NC(=O)C3CC3)ccc2O[C@@H]1CN(C)S(=O)(=O)c1ccc(Cl)cc1 | 4
CC1CCc2c(sc3ncnc(NCCc4nc5ccccc5[nH]4)c23)C1 (stereo unspecified) | 97*
Cc1c(Cl)cccc1NC(=O)CN(C)S(=O)(=O)c1ccc2ccccc2c1 | 13
C[C@H]1CN([C@@H](C)CO)C(=O)c2cccc(NC(=O)Nc3ccc(C(F)(F)F)cc3)c2O[C@H]1CN(C)S(C)(=O)=O | 42
Cc1noc(C)c1NC(=O)Nc1ccc2c(c1)C(=O)N([C@H](C)CO)C[C@@H](C)[C@H](CN(C)Cc1ccc(C(F)(F)F)cc1)O2 | -12
Nc1cc(N)nc(SCc2n[nH]c(=S)n2-c2ccccc2)n1 | -5
C[C@H](CO)N1C[C@H](C)[C@@H](CN(C)Cc2ccccc2)Oc2c(NC(=O)c3ccncc3)cccc2C1=O | 23
C[C@H]1CN([C@@H](C)CO)C(=O)Cc2cc(NC(=O)CCN3CCOCC3)ccc2O[C@H]1CN(C)CC1CC1 | 8
CC(C)c1ccc(NC(=O)CNS(=O)(=O)c2ccccc2)cc1 | 20
COc1ccc(S(=O)(=O)N(C)C[C@@H]2Oc3c(NC(=O)Nc4ccc(F)cc4)cccc3C(=O)N([C@H](C)CO)C[C@@H]2C)cc1 | 33
COc1ccc(NC(=O)c2cccs2)cc1OC | 13
C[C@H](CO)N1C[C@H](C)[C@@H](CN(C)Cc2ccccc2)Oc2c(NC(=O)NC3CCCCC3)cccc2C1=O | 84*
C[C@H](CO)N1C[C@H](C)[C@H](CN(C)Cc2ccc(-c3ccccc3)cc2)Oc2ccc(NC(=O)Nc3ccccc3)cc2C1=O | -14

A second format for some results above.
| Compound | NOMO-1 viab |
| --- | --- |
| COC(=O)c1cc2cc(O)c(-c3c(O)cc4cc(C(=O)OC)oc(=O)c4c3O)c(O)c2c(=O)o1 | 39 |
| C[C@@H]1CN([C@H](C)CO)C(=O)c2cc(NS(=O)(=O)c3cccs3)ccc2O[C@H]1CN(C)C(=O)Nc1ccccc1 | 10 |

The listing continues:
SMILES | NOMO-1 viab
Cc1ccc(NC(=O)CSc2nnc(-c3ccco3)n2-c2ccccc2)cc1Cl | 29
Nc1cc(N)nc(SCC(=O)N2CCN(c3ccc(Cl)cc3)CC2)n1 | 34
COC(=O)c1cc(C)nc(Sc2ccccc2NC(=O)Nc2ccc(Cl)cc2)n1 | 109*
C[C@@H]1CN([C@@H](C)CO)C(=O)c2cccc(NC(=O)C3CCCCC3)c2O[C@H]1CN(C)Cc1ccccc1 | 96*

Screens deposited in PubChem by Broad Institute.
